# Screening data: PubChem, Fisher Drug Discovery Resource Center
# NPYLR7 agonist: mosquito NPYLR7 agonism; HEK293T NPYLR7/Galpha15, GCaMP6s calcium fluorescence; AID 1259423; activation, % at 10 µM; actives 0.15% (n = 270,000); in the data active = activation above about 40%;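 also: 0% = vehicle and 100% = reference agonist at the receptor; some compounds past the cut are filed as inactive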
# NPYLR7 agonist max-min: second read-out of NPYLR7 agonist, no call of its own (marks repeat the call); activation, %; measured here: Max-Min RFU normalised activation; some inactives read as strong as hits;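 span of the calcium signal over five minutes; 0% = vehicle and 100% = native peptide agonist; compound fluorescence can raise it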
# * marks the source's active call; other numbers are inactive results; & = joins results of further samples. The list is partial (hit frequency here may not be typical).
SMILES,NPYLR7 agonist,NPYLR7 agonist max-min
Cc1c(Br)c([N+](=O)[O-])nn1CC(=O)N1CCN(C)CC1,-1,-6
CN=Cc1c(NC)n2c(C)cccc2nc1=O,7,5
O=C(Nc1ccccc1Oc1ccccc1)N1[C@H]2CCNC[C@@H]1CC2,-1,-3
Cc1cccc(CN2CCCn3cccc3C2c2ccccc2)c1C (configuration not stated),-2,3
O=C(CC1C(=O)NCCN1Cc1ccc(F)cc1Cl)NC1(c2ccccc2)CC1 (configuration not stated),3,2
CNC(=O)c1cc(Cl)ccc1NCCCOCC(F)(F)F,-2,-3
O=C(CC(c1ccccc1)c1ccc(Cl)cc1)NCCN1CCOCC1 (configuration not stated),4,-8
CCCCSc1nnc2c(n1)OC(/C=C/c1ccccc1[N+](=O)[O-])Nc1ccccc1-2 (configuration not stated),0,-4
COc1ccccc1OCC(=O)N1CCC(Oc2nc3c(C)cccc3s2)CC1,-1,-2
CC(=O)N1CCN(C(=O)CCNC(=O)NC2CCCCC2C)CC1 (configuration not stated),0,-5
CC(C)n1c(C(=O)O)cc(Br)c1Br,4&0,1&-3
COC(=O)c1ccc(NC(=O)c2cnn(-c3ccccc3)c2)c(C)c1,-1,0
O=C(COc1coc(CN2CCc3ccccc32)cc1=O)N1CCCCCC1,4,4
O=C(c1ccc(F)cc1)N(Cc1nccn1Cc1ccccc1C(F)(F)F)CC1CC1,21,32
N=c1sc(-c2ccccc2)nn1Cc1cccc2cccnc12,1,10
CCOCCCN(CC(=O)N1CCc2sccc2C1c1ccccc1)S(=O)(=O)c1ccc(OC)cc1 (configuration not stated),2,13
Cc1nn(-c2ccc(Nc3ccc(NC(=O)Cc4ccccc4)cc3)nn2)c(C)c1C,0,-6
CC(=NNC(N)=O)C1CCCCCCCCCCC1,0,-1
CC1(C)CC2CC(C)(CN2S(=O)(=O)c2cccc(C(=O)OCC(=O)C(C)(C)C)c2)C1 (configuration not stated),16,5
COc1ccc(-c2nc(-c3ccccc3F)cs2)cc1OC,3,0
CCOC(=O)c1[nH]ncc1CN1CCC2(CCCN(CCCc3ccccc3)C2)C1 (configuration not stated),-1,-7
CCc1ccc(C(=O)Nc2c(-c3ccc(OC)cc3)nc3ccc(C)cn23)cc1,-4,2
C#CCN(CC1CCCO1)C(=O)Nc1ccccc1SC1CCCC1 (configuration not stated),10,7
CN1CCN(Cc2ccccc2Oc2ncccc2C(F)(F)F)CC1,-1,-3
Cc1cc(NCc2ccc3c(c2)OCCCO3)c(C#N)c(C)n1,9&0,6&-1
CC(C)OCCS(=O)(=O)N(Cc1ccccc1)c1ccncc1,2,0
CC(C)=CCN1CCCC(Cn2ccnc2C)C1 (configuration not stated),4,-5
Cc1ccccc1CCC(=O)N1CCN(C(=O)c2ccsc2)CC1,4,-1
CCCNC(=O)C1(C)CCN(Cc2cc(-c3ccccc3)nn2C)C1 (configuration not stated),1,-1
CCSc1nc(N2CCOCC2)c2cnn(CCNC(=O)c3cc4ccccc4o3)c2n1,0,-4
CCCn1c(=O)c2c(nc3n2CCN3c2cc(C)cc(C)c2)n(C)c1=O,8,8
O=C(c1cc2c(=O)n3ccccc3nc2s1)N1CCOCC1,10&8,4&3
c1ccc(-c2cc3c(Nc4cccnc4)nccc3[nH]2)cc1,-6,-15
O=C(CSc1ccc2c(c1)OCCO2)Nc1ccc(-n2cnnn2)cc1,2,-4
C#CCn1c(O)c(N=NC(=O)C2CC2(c2ccccc2)c2ccccc2)c2ccccc21 (configuration not stated),0,-3
COc1nccnc1-c1cccc(C(=O)O)c1,2,1
CC(Nc1ccc(C(=O)N2CCC(Oc3cccnc3)CC2)cn1)c1ncc[nH]1 (configuration not stated),2,3
O=C(c1ccc(Cl)c(Cl)c1)N1CCCC(OCc2cccnc2)C1 (configuration not stated),22,20
Cc1ccc(CN(Cc2ccccc2)C(=O)CN(C(=O)c2ccc(C(F)(F)F)cc2)C(C)C)o1,-4,-2
COc1c(N2C[C@@H]3CCCN[C@@H]3C2)c(F)cc2c(=O)c(C(=O)O)cn(C3CC3)c12,-6,-13
CC(=O)N1CCC(C(=O)NC(c2ccccc2)C2CCCCC2)CC1 (configuration not stated),-24,-22
COC(=NS(=O)(=O)c1ccc(Cl)cc1)c1ccccc1,-2,-9
CCOCCCN1C(=O)C(=Cc2c(N3CCCCC3)nc3c(C)cccn3c2=O)SC1=S,5,2
COc1ccc(CN2CCCC2)cc1Oc1ncc(C(F)(F)F)cc1Cl,0,1
CN=c1scc(-c2ccccc2F)n1N=Cc1ccc(O)c(O)c1O,31,21
O=C(c1ccccc1Cl)N(CC(=O)N1CCc2sccc2C1COc1ccccc1F)CC1CCCO1 (configuration not stated),-2,5
Cc1cc(C)c(CNC(=O)c2ccc(C)c(NC(=O)C3CC3)c2)c(C)c1,-4,-9
Cc1nc2ccc(Cl)cn2c(=O)c1NC(=O)c1cccc(F)c1,2,0
CCCCN1C(CC(C)C)=NS(=O)(=O)c2cc(NC(=O)c3cccc(F)c3)ccc21,17,11
COc1cccc(Cc2nsc(N3CCC(CNC(=O)c4ccc(Cl)c(Cl)c4)CC3)n2)c1,21,22
CCCC(=O)Nc1cc(-c2ccc(OC)nn2)ccc1C,1,14
COc1cc(OC)cc(-c2nnc(SCc3ccc(Cl)c(Cl)c3)n2C2CCCCC2)c1,3,7
O=c1cc(O)c2sc(Nc3ccccc3)nc2[nH]1,2,0
Cc1oc(-c2ccc(Cl)cc2)cc1C(=O)N1CCN(c2nccc(-c3ccc(Oc4ccccc4)cc3)n2)CC1,8,-1
COc1ccc(NC(=O)c2c(O)c3ccccc3n(C)c2=O)cc1,4,2
COc1ccccc1C(=O)N(CC(=O)N1CCc2sccc2C1COc1ccccc1C)C1CC1 (configuration not stated),-2,0
Cc1cc(OC(=O)c2ccccc2I)c([N+](=O)[O-])c(=O)[nH]1,9,7
CCS(=O)(=O)NC1CCN(c2ccccc2C(=O)NC(C)C(C)C)CC1 (configuration not stated),13,16
COCCN1CCN(c2cc(Oc3ccc(OC)cc3)ncn2)CC1,-10,-6
CCOC(=O)c1c(C)nn(-c2ccc(C(=O)Nc3cccc4c3CCCC4)cc2)c1C,-8,-13

# Continued.
SMILES,NPYLR7 agonist,NPYLR7 agonist max-min
Cc1cc(=O)[nH]c2c1c(=O)[nH]n2C1CCCCCC1,1,0
COC(=O)C1CCN(C(=O)Nc2cccc(-c3ncco3)c2)CC1,10,7
OCCN=C1CCc2c1[nH]c1ccc(C3CCCCC3)cc21,2,0
CCOc1cc(CNC(CC)CO)ccc1OCC(=O)Nc1cccc(C(F)(F)F)c1 (configuration not stated),-6,-9
COc1ccccc1N1CCN(c2ccc(NC(=O)c3ccc(C)c([N+](=O)[O-])c3)cc2C(=O)NC2CC2)CC1,0,7
CC(C)[C@H](NS(=O)(=O)c1cccc(C(F)(F)F)c1)C(=O)Nc1nccs1,3,-1
CC(=O)N1CCN(C(=O)c2coc(CN(Cc3cccc(F)c3)Cc3cccc(C(F)(F)F)c3)n2)CC1,20,32
CC(=O)N1CCN(C(=O)c2cccc(Br)c2O)CC1,10,4
O=c1cc(-c2cc(Cl)cc3c2OCOC3)oc2ccc(F)cc12,21,13
Cc1nc(Nc2nc3ccccc3o2)nc(C)c1C,-4,-7
C=CCn1cnnc1SCC(=O)NC(=O)Nc1ccc(C)c(C)c1,12,8
Cc1cccc(OC2CCN(Cc3cn[nH]c3C(=O)O)CC2)c1,-10,-11
CN(Cc1cnn(-c2ccccc2)c1)C(=O)c1cccc(S(=O)(=O)N2CCCCC2)c1,4,3
COC(=O)C(CCSC)NC(=O)c1cc(Cl)ccc1OC1CCN(C(C)=O)CC1 (configuration not stated),2,-3
Cc1ccc(CN(Cc2ccc(F)cc2)C(=O)CN(CCN2CCOCC2)S(=O)(=O)c2ccc(Cl)c([N+](=O)[O-])c2)o1,1,10
COCCNC(=O)Cn1nc(-c2ccc(OC)cc2)c2sc(C)nc2c1=O,0,-3
Cc1ccc(-n2nc(-c3ccc([N+](=O)[O-])cc3)cc2C(=O)N2CCN(c3cccc(C(F)(F)F)c3)CC2)c(C)c1,-2,1
O=C(NCCCl)NCc1nnnn1-c1ccc(F)cc1,4,1
CCCC(C)NC(=O)Cn1cnc2cc(F)ccc2c1=O (configuration not stated),-3,-1
Cc1ccccc1CC(=O)NCCc1ccc(OC(C)C)cc1,13,8
C=C1c2ccccc2C(=O)N1CC(=O)NC(C)c1cc(C)ccc1C (configuration not stated),-19,-23
Cc1nc(C(=O)N2CCc3c(cc(-c4cccc(F)c4)c(=O)n3CCN3CCCCC3)C2)cs1,11,-3
CC(C)NC(=O)CCNC(=O)Nc1cccc(-c2ccsc2)c1,19,12
Cc1nc(C(C)Nc2ccc(-c3nccn3C)nn2)n[nH]1 (configuration not stated),1,2

# 22 of the compounds above, with two lines to a compound.
# Below each SMILES – NPYLR7 agonist | NPYLR7 agonist max-min
> Cc1cc(=O)[nH]c2c1c(=O)[nH]n2C1CCCCCC1
  1 | 0
> COC(=O)C1CCN(C(=O)Nc2cccc(-c3ncco3)c2)CC1
  10 | 7
> OCCN=C1CCc2c1[nH]c1ccc(C3CCCCC3)cc21
  2 | 0
> CCOc1cc(CNC(CC)CO)ccc1OCC(=O)Nc1cccc(C(F)(F)F)c1 (configuration not stated)
  -6 | -9
> COc1ccccc1N1CCN(c2ccc(NC(=O)c3ccc(C)c([N+](=O)[O-])c3)cc2C(=O)NC2CC2)CC1
  0 | 7
> CC(C)[C@H](NS(=O)(=O)c1cccc(C(F)(F)F)c1)C(=O)Nc1nccs1
  3 | -1
> CC(=O)N1CCN(C(=O)c2coc(CN(Cc3cccc(F)c3)Cc3cccc(C(F)(F)F)c3)n2)CC1
  20 | 32
> CC(=O)N1CCN(C(=O)c2cccc(Br)c2O)CC1
  10 | 4
> O=c1cc(-c2cc(Cl)cc3c2OCOC3)oc2ccc(F)cc12
  21 | 13
> Cc1nc(Nc2nc3ccccc3o2)nc(C)c1C
  -4 | -7
> C=CCn1cnnc1SCC(=O)NC(=O)Nc1ccc(C)c(C)c1
  12 | 8
> Cc1cccc(OC2CCN(Cc3cn[nH]c3C(=O)O)CC2)c1
  -10 | -11
> CN(Cc1cnn(-c2ccccc2)c1)C(=O)c1cccc(S(=O)(=O)N2CCCCC2)c1
  4 | 3
> COC(=O)C(CCSC)NC(=O)c1cc(Cl)ccc1OC1CCN(C(C)=O)CC1 (configuration not stated)
  2 | -3
> Cc1ccc(CN(Cc2ccc(F)cc2)C(=O)CN(CCN2CCOCC2)S(=O)(=O)c2ccc(Cl)c([N+](=O)[O-])c2)o1
  1 | 10
> COCCNC(=O)Cn1nc(-c2ccc(OC)cc2)c2sc(C)nc2c1=O
  0 | -3
> Cc1ccc(-n2nc(-c3ccc([N+](=O)[O-])cc3)cc2C(=O)N2CCN(c3cccc(C(F)(F)F)c3)CC2)c(C)c1
  -2 | 1
> O=C(NCCCl)NCc1nnnn1-c1ccc(F)cc1
  4 | 1
> CCCC(C)NC(=O)Cn1cnc2cc(F)ccc2c1=O (configuration not stated)
  -3 | -1
> Cc1ccccc1CC(=O)NCCc1ccc(OC(C)C)cc1
  13 | 8
> C=C1c2ccccc2C(=O)N1CC(=O)NC(C)c1cc(C)ccc1C (configuration not stated)
  -19 | -23
> Cc1nc(C(=O)N2CCc3c(cc(-c4cccc(F)c4)c(=O)n3CCN3CCCCC3)C2)cs1
  11 | -3

# The list goes on:
SMILES,NPYLR7 agonist,NPYLR7 agonist max-min
CCOC(=O)N1CCC(NCc2noc(-c3ccc4c(c3)OCO4)n2)CC1,3,2
COc1ccccc1-n1c(-c2ccccc2)n[nH]c1=S,1,0
COC(=O)C1=C(C)N(C)C(C)=C(C(=O)OC)C1c1ccc(OC)cc1OC,6,4
O=C(c1ccccc1)N1N=C(c2ccc(Br)cc2)CC1c1ccc(F)cc1 (configuration not stated),3,-6
CN(C)C(=O)c1ccc(Cl)c(NC(=O)c2ccc(C(F)(F)F)nc2)c1,-2,1
Cc1noc(CCCC(=O)N(C)c2ccc3c(c2)CCO3)n1,2,0
Cc1ccc(S(C)(=O)=O)cc1S(=O)(=O)N1CCN(CC2CCCCC2)CC1,-3,-4
Cc1cccc(C(O)c2ncc(-c3cccc(C(F)(F)F)c3)[nH]2)c1C (configuration not stated),-1,-3
O=C(c1cccs1)N1CCOC(CC2CCCCC2)C1 (configuration not stated),6,1
CCN(CC)c1cc(Cl)nc(SCc2cccc(C(=O)N3CCN(c4ccccc4Cl)CC3)c2)n1,-5,4
NC(N)=NCC1COc2ccccc2O1 (configuration not stated),0,-10
COCC(=O)Nc1ccc(N(C)C)c(CN(C(=O)Nc2cccc(F)c2)C(C)C(C)C)c1 (configuration not stated),1,12
Cn1c(=O)c2c(SCC(=O)NCCc3ccccc3)nc(-c3ccccc3F)nc2n(C)c1=O,-3,-8
COC(C)(C)C(=O)N1CCC(c2cc(CC(=O)O)[nH]n2)CC1,6,1
CCC1CCCCN1C(=O)Cn1nc([N+](=O)[O-])c(Br)c1C (configuration not stated),1,-5
CCNC1CCc2c(c(C(=O)NC)nn2Cc2ccccc2)C1 (configuration not stated),9,-4
CCOC(=O)N1CCN(CC(=O)N2N=C(c3ccccc3Cl)CC2c2ccc3c(c2)OCO3)CC1 (configuration not stated),-1,4
COc1ccc(N2CCN(c3nc(SCc4ccc(C(=O)NCC5CCCO5)cc4)nc(C)c3C)CC2)cc1 (configuration not stated),9,11
CCNC(=O)c1coc(CN(Cc2cccc(C(F)(F)F)c2)Cc2cc(OC)ccc2OC)n1,10,3
COc1ccc(OC)c(-n2c(=O)c3ccccc3c3ccccc3c2=O)c1,1,-4
Cc1ccc(CNC(=O)C2CSCN2C(=O)c2ccccc2)cc1 (configuration not stated),1,-1
CN1N=C(C(=O)Nc2cc(S(=O)(=O)N3CCCCC3)ccc2N2CCCCCC2)CCC1=O,-2,-1
COc1ccc2cc(C3CN(C(=O)c4cc[nH]c4)CCO3)ccc2c1 (configuration not stated),-9,-10
